Source: PubChem BioAssay
KCNQ2 enhance = potentiators of rat KCNQ2 potassium channel; Potassium voltage-gated channel subfamily KQT member 2 (Rattus norvegicus), O88943; CHO-K1 KCNQ2, FluxOR thallium flux fluorescence; hits give high values; B-score at 10 µM; hit rate 0.54% among 310,000; AID 2239, 2010;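 active = fluorescence ratio B-score at least 3 SD of library B-scores, with initial fluorescence B-score within 3 SD, cut at about 5.3 in these data; same plate scores as AID 2156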;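 also: B-score of peak minus minimum over baseline fluorescence ratio after K+ and Tl+ stimulus; positive B-score means potentiation of KCNQ2 with more thallium influx and brighter signal; only the inactives scoring about 0 or higher are listed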
Target sequence (O88943 whole entry, looked up): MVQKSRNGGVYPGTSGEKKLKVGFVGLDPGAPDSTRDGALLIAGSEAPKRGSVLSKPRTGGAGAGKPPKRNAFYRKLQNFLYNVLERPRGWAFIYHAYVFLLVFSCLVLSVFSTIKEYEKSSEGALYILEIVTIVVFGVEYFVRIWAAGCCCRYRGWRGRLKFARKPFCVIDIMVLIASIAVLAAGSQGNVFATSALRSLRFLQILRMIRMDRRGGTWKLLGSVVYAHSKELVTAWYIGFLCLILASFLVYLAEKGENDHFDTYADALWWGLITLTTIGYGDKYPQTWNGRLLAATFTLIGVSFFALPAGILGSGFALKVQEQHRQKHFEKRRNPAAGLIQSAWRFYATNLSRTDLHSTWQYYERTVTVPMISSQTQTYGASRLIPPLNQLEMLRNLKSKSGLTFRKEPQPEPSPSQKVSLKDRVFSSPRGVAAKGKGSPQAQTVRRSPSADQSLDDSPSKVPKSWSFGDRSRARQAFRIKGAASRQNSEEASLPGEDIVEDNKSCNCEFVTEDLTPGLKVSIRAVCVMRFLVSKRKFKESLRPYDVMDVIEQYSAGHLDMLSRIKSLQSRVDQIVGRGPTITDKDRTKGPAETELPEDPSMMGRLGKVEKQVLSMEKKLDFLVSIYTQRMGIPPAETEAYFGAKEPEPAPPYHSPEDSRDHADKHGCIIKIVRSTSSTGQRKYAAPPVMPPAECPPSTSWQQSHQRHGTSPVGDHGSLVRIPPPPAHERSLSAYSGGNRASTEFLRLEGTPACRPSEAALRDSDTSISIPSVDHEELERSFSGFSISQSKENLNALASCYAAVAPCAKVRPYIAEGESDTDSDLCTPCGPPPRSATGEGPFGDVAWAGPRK
KCNQ2 enhance baseline = second read-out of KCNQ2 enhance, no call of its own (marks repeat the call); B-score; compound at 10 µM; measured here: initial fluorescence intensity artifact check;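 brightness before thallium and not channel activity; 0 = typical well and far values either way flag optical interference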
The depositor's hits bear a star. These rows are one share of the data. The share of hits here may be higher or lower than overall.

Results for CCN(CC(=O)Nc1c(F)cccc1F)C(=O)c1ccc(N2CCCCC2)c([N+](=O)[O-])c1 ?
KCNQ2 enhance: 1.8; KCNQ2 enhance baseline: 0.62

Results for CC(C)(O)[C@@H]1[C@@H]2C[C@@]3(CC[C@]4(C)C(CCC5[C@@]6(C)CC[C@H](O)C(C)(C)C6CC[C@]54C)[C@@H]13)C(=O)O2 (stereo partly drawn) ?
KCNQ2 enhance: 0.01; KCNQ2 enhance baseline: 0.16

How did COc1ccc(NC(=O)CCCNC(=O)Cn2cnc3sc4c(c3c2=O)CCCC4)c(OC)c1 do in these assays?
KCNQ2 enhance: 0.08; KCNQ2 enhance baseline: 0.01

How did Fc1ccccc1-c1nc(NCCCN2CCOCC2)c2ccccc2n1 do in these assays?
KCNQ2 enhance: 0.04; KCNQ2 enhance baseline: -2.5

Results for Cc1ccccc1NS(=O)(=O)c1cccc2nonc12 ?
KCNQ2 enhance: 0.01; KCNQ2 enhance baseline: -2.2

Results for CCOC(=O)C(NC=O)(NC(C)(C)C)C(=O)OCC ?
KCNQ2 enhance: 0.96; KCNQ2 enhance baseline: -0.05

How did Cc1ccc(C(=O)Nc2cccnc2)cc1S(=O)(=O)N1CCCC1 do in these assays?
KCNQ2 enhance: 1.3; KCNQ2 enhance baseline: 0.01

Results for Cc1nonc1NC(=O)CSc1ccc(-c2ccccc2)nn1 ?
KCNQ2 enhance: 2.3; KCNQ2 enhance baseline: -1

How did COc1ccc(CCNC(=O)Cn2c(=O)oc3ccccc32)cc1OC do in these assays?
KCNQ2 enhance: 1.5; KCNQ2 enhance baseline: 2.4

Results for Cc1nc(NS(=O)(=O)c2ccccc2)sc1C(=O)N/N=C/c1ccccc1 ?
KCNQ2 enhance: 0.08; KCNQ2 enhance baseline: 0.92

What do the screens show for `O=C(O)c1ccc(N=C2NC(=O)C(CO)(CO)S2)cc1`?
KCNQ2 enhance: 0.42; KCNQ2 enhance baseline: 0.32

What do the screens show for `Cn1c(Cn2c(=O)sc3ccccc32)nnc1SCC(=O)Nc1ccc(F)cc1`?
KCNQ2 enhance: 1.9; KCNQ2 enhance baseline: -0.52

How did CCn1c(Cn2nnc(-c3ccccc3)n2)nnc1SCC(=O)Nc1cccc(C(C)=O)c1 do in these assays?
KCNQ2 enhance: 0.02; KCNQ2 enhance baseline: -0.17

Results for O=C(COc1ccc(S(=O)(=O)N2CCCCC2)cc1)N1CCCC1 ?
KCNQ2 enhance: 1.2; KCNQ2 enhance baseline: -0.61

Results for OCCN1CCN(CCCc2c3c(cc4c2CCC4)CCC3)CC1 ?
KCNQ2 enhance: 1.1; KCNQ2 enhance baseline: 0.22

Results for CCc1ccccc1NC(=O)CSc1nc2c(c(-c3ccco3)c1C#N)CCCC2 ?
KCNQ2 enhance: 0.03; KCNQ2 enhance baseline: 1.4

How did O=C(Cn1c(=O)oc2ccccc21)Nc1ccc(Cl)cc1 do in these assays?
KCNQ2 enhance: 0.05; KCNQ2 enhance baseline: -2.5

How did CCc1cc(=O)oc2cc(OCC(N)=O)c(Cl)cc12 do in these assays?
KCNQ2 enhance: 0.61; KCNQ2 enhance baseline: 1.2

What do the screens show for `O=C(/C=C/c1ccco1)N1CCN(S(=O)(=O)c2ccc(F)c(F)c2F)CC1`?
KCNQ2 enhance: 0.28; KCNQ2 enhance baseline: 0.52

Results for Cc1ccnc(NS(=O)(=O)c2ccc(NC(=O)/C=C/c3ccccc3)cc2)n1 ?
KCNQ2 enhance: 0.32; KCNQ2 enhance baseline: -1

How did Cc1ccc(S(=O)(=O)N2CN(CC3CCCO3)c3nc4ccccc4nc32)c(C)c1 (stereo not drawn) do in these assays?
KCNQ2 enhance: 0.1; KCNQ2 enhance baseline: 0.24

How did C=CCC1c2cccc(C(=O)O)c2C(=O)N1c1cccc(C)c1 (stereo not drawn) do in these assays?
KCNQ2 enhance: 0.86; KCNQ2 enhance baseline: -0.04

What do the screens show for `CCCCNC(=O)CCc1nc2cccnc2n1Cc1ccccc1`?
KCNQ2 enhance: 0.47; KCNQ2 enhance baseline: 0.18

What do the screens show for `Cc1cc(Nc2ccc3c(c2)OCCO3)n2nc(C)nc2n1`?
KCNQ2 enhance: 0.8; KCNQ2 enhance baseline: 0.41

What do the screens show for `Cc1nc(C(F)(F)F)ccc1C(=O)Nc1ccccc1N1CCOCC1`?
KCNQ2 enhance: 0.47; KCNQ2 enhance baseline: 0.89

What do the screens show for `CCOC(=O)C1CCN(CCC(=O)Nc2ccc(C)c(C)c2)CC1`?
KCNQ2 enhance: 0.22; KCNQ2 enhance baseline: -1.3

Results for COCCn1c(=O)c2c(nc3n2CCCN3CCc2ccc(OC)c(OC)c2)n(C)c1=O ?
KCNQ2 enhance: 0.23; KCNQ2 enhance baseline: 0.37

Results for CCc1nnc(NC(=O)CSc2nnc(-c3c[nH]c4ccccc34)n2CCOC)s1 ?
KCNQ2 enhance: 0.56; KCNQ2 enhance baseline: 1.8

What do the screens show for `CC(=O)c1sc(-c2ccc(Cl)cc2)cc1N`?
KCNQ2 enhance: 0.01; KCNQ2 enhance baseline: -0.38

How did CC(C)(CO)NCC#Cc1ccccc1 do in these assays?
KCNQ2 enhance: 1.6; KCNQ2 enhance baseline: 1

Results for Cc1ccc(C(=O)NC(C)c2nc3ccccc3n2CC(=O)Nc2c(C)cc(C)cc2C)cc1 (stereo not drawn) ?
KCNQ2 enhance: 0.74; KCNQ2 enhance baseline: -1.8

How did O=C(CCCN1C(=O)/C(=C/c2ccco2)SC1=S)Nc1ccccc1C(=O)O do in these assays?
KCNQ2 enhance: 1.1; KCNQ2 enhance baseline: 0.92

How did Cc1ccc2nc(NCC(N)=O)nc(-c3ccccc3)c2c1 do in these assays?
KCNQ2 enhance: 1.6; KCNQ2 enhance baseline: -0.29

Results for CN(C)c1ccc(/C=N/Nc2nncc3ccccc23)cc1 ?
KCNQ2 enhance: 0.7; KCNQ2 enhance baseline: 0.2

Results for CC(C)(C)c1ccc(-c2n[nH]c(=S)n2CCCN2CCOCC2)cc1 ?
KCNQ2 enhance: 1; KCNQ2 enhance baseline: -1.1

Results for Cc1ccc(S(=O)(=O)Nc2cc(=O)[nH]c(SCC(=O)Nc3cccc(C(F)(F)F)c3)n2)cc1 ?
KCNQ2 enhance: 0.03; KCNQ2 enhance baseline: 0.17

What do the screens show for `COc1ccc2c(CC(=O)Nc3ccc(OC)c(NS(=O)(=O)c4ccc(F)cc4)c3)coc2c1`?
KCNQ2 enhance: 0.22; KCNQ2 enhance baseline: 0.66

Results for CCCc1nc2c(sc3nc4c(cc32)COC(C)(C)C4)c(=O)n1Cc1ccco1 ?
KCNQ2 enhance: 0.07; KCNQ2 enhance baseline: -0.2

What do the screens show for `CCC1CSC(Nc2ccc(C(=O)/C=C/c3ccc(Oc4ccccc4)cc3)cc2)=N1` (stereo not drawn)?
KCNQ2 enhance: 0.7; KCNQ2 enhance baseline: 0.03

What do the screens show for `Cc1cc(C(=O)N2CCCC(Nc3ccc(F)cc3)C2)n(C)n1` (stereo not drawn)?
KCNQ2 enhance: 1.7; KCNQ2 enhance baseline: -1.7

Results for O=c1nc(-c2ccccc2)n(-c2ccccc2)c2ncccc12 ?
KCNQ2 enhance: 0.32; KCNQ2 enhance baseline: 0.57

Results for COc1ccc2c(C=Nc3c(C)n(C)n(-c4ccccc4)c3=O)c(O)n(Cc3ccco3)c(=O)c2c1 ?
KCNQ2 enhance: 0.08; KCNQ2 enhance baseline: -0.06

Results for CC1CCN(CCC(=O)Nc2ccccc2)CC1 ?
KCNQ2 enhance: 0.02; KCNQ2 enhance baseline: 0.56

Results for Cc1ccc(S(=O)(=O)N(Cc2cccnc2)Cc2cc3ccccc3[nH]c2=O)cc1 ?
KCNQ2 enhance: 1.9; KCNQ2 enhance baseline: 0.72

What do the screens show for `CC(C)CC(=O)NC(=S)Nc1cc(C(=O)O)ccc1Cl`?
KCNQ2 enhance: 0.02; KCNQ2 enhance baseline: -1.8

How did O=C(CNC(=O)c1ccc(OC(F)F)cc1)NCC1CCCO1 (stereo not drawn) do in these assays?
KCNQ2 enhance: 1.1; KCNQ2 enhance baseline: -2.5

What do the screens show for `O=C(/C=C/c1ccc([N+](=O)[O-])cc1)Nc1cccnc1`?
KCNQ2 enhance: 0.21; KCNQ2 enhance baseline: -0.62

What do the screens show for `Cc1ccc(N(CC(O)CN2C(=O)NC(C)(C)C2=O)S(=O)(=O)c2ccc([N+](=O)[O-])cc2)cc1` (stereo not drawn)?
KCNQ2 enhance: 0.05; KCNQ2 enhance baseline: -0.03

Results for CCc1nnc(NC(=O)Cn2ccc(C(F)(F)F)n2)s1 ?
KCNQ2 enhance: 2.2; KCNQ2 enhance baseline: -0.99

How did CC(C)C(C(=O)Nc1ncn[nH]1)N1C(=O)c2ccccc2C1=O (stereo not drawn) do in these assays?
KCNQ2 enhance: 0.52; KCNQ2 enhance baseline: 1.7

What do the screens show for `NS(=O)(=O)c1ccc(NC(=O)/C=C/c2ccco2)cc1`?
KCNQ2 enhance: 0.74; KCNQ2 enhance baseline: 0.16

What do the screens show for `COc1ccc(NC(=O)C2C3CCC(O3)C2C(=O)O)c(C)c1` (stereo not drawn)?
KCNQ2 enhance: 0.72; KCNQ2 enhance baseline: 0.96

Results for CCOC(=O)C(C)Oc1cccc2c(=O)n(CC(=O)NCc3ccc4c(c3)OCO4)ccc12 (stereo not drawn) ?
KCNQ2 enhance: 0.26; KCNQ2 enhance baseline: -0.5

Results for CC1(C)NC(=O)N(CC(O)CN2CCOCC2)C1=O (stereo not drawn) ?
KCNQ2 enhance: 0.4; KCNQ2 enhance baseline: 1.4

Results for O=C(COC(=O)c1ccccc1Cc1ccccc1)Nc1ccc(SC(F)F)cc1 ?
KCNQ2 enhance: 0.33; KCNQ2 enhance baseline: -2.2

Results for COC(=O)COc1ccc2oc(=O)cc(C)c2c1 ?
KCNQ2 enhance: 0.67; KCNQ2 enhance baseline: 1.2

What do the screens show for `O=C(COC(=O)C1CCC1)Nc1ncc(Cl)cc1Cl`?
KCNQ2 enhance: 1.6; KCNQ2 enhance baseline: 0.2

How did Cc1c(C(=O)N2CCCCC2)sc(NC(=O)C2CC2)c1C#N do in these assays?
KCNQ2 enhance: 0.01; KCNQ2 enhance baseline: -0.58

What do the screens show for `O=C1N(CN2C(=O)C3(OCCO3)c3ccccc32)c2ccccc2C12OCCO2`?
KCNQ2 enhance: 0.93; KCNQ2 enhance baseline: -1.8

How did O=[N+]([O-])c1ccc(CN2CCN(c3ccc(F)cc3)CC2)o1 do in these assays?
KCNQ2 enhance: 1.8; KCNQ2 enhance baseline: 1.1

How did CN(C)S(=O)(=O)c1cccc(NC(=O)COC(=O)c2ccc(Br)o2)c1 do in these assays?
KCNQ2 enhance: 0.43; KCNQ2 enhance baseline: 1.7

How did O=C(CN1CCOc2ccccc21)NC1CCCCCCC1 do in these assays?
KCNQ2 enhance: 0.18; KCNQ2 enhance baseline: -0.53

How did CC(C)(C)c1ccc(OCC(=O)NCc2ccco2)c(Br)c1 do in these assays?
KCNQ2 enhance: 5.4*; KCNQ2 enhance baseline: -0.37*

Results for COC(=O)Nc1ccc(C)cc1NC(=O)OC ?
KCNQ2 enhance: 0.68; KCNQ2 enhance baseline: 0.03

Results for CNc1ccc(Br)cc(C(=O)/C=C/c2cccc(OC)c2)c1=O ?
KCNQ2 enhance: 0.34; KCNQ2 enhance baseline: -1.6

How did O=C(NC(Cc1ccccc1)C(=O)O)/C(=C/c1ccc([N+](=O)[O-])cc1)NC(=O)c1ccco1 (stereo not drawn) do in these assays?
KCNQ2 enhance: 0.06; KCNQ2 enhance baseline: -0.15

What do the screens show for `O=C(Nc1ccc(C(=O)NCC2CCN(Cc3ccccc3F)CC2)cc1)C1=CSCCO1`?
KCNQ2 enhance: 0.53; KCNQ2 enhance baseline: 1.6

How did OCC1CCCN(C(=S)Nc2ccc(Nc3ccccc3)cc2)C1 (stereo not drawn) do in these assays?
KCNQ2 enhance: 0.5; KCNQ2 enhance baseline: -0.03

What do the screens show for `COCCCNCCOc1ccc(C)cc1[N+](=O)[O-]`?
KCNQ2 enhance: 0.01; KCNQ2 enhance baseline: -0.2

What do the screens show for `c1ccn2cc(CSc3nnc4ccccn34)nc2c1`?
KCNQ2 enhance: 0.22; KCNQ2 enhance baseline: -0.31

Ordered by count of non-hydrogen atoms (smallest number first): nine of the compounds above
Results for COC(=O)Nc1ccc(C)cc1NC(=O)OC ?
KCNQ2 enhance: 0.68; KCNQ2 enhance baseline: 0.03

Results for COC(=O)COc1ccc2oc(=O)cc(C)c2c1 ?
KCNQ2 enhance: 0.67; KCNQ2 enhance baseline: 1.2

Results for CNc1ccc(Br)cc(C(=O)/C=C/c2cccc(OC)c2)c1=O ?
KCNQ2 enhance: 0.34; KCNQ2 enhance baseline: -1.6

How did CN(C)S(=O)(=O)c1cccc(NC(=O)COC(=O)c2ccc(Br)o2)c1 do in these assays?
KCNQ2 enhance: 0.43; KCNQ2 enhance baseline: 1.7

How did COc1ccc(CCNC(=O)Cn2c(=O)oc3ccccc32)cc1OC do in these assays?
KCNQ2 enhance: 1.5; KCNQ2 enhance baseline: 2.4

What do the screens show for `CCC1CSC(Nc2ccc(C(=O)/C=C/c3ccc(Oc4ccccc4)cc3)cc2)=N1` (stereo not drawn)?
KCNQ2 enhance: 0.7; KCNQ2 enhance baseline: 0.03

Results for CCN(CC(=O)Nc1c(F)cccc1F)C(=O)c1ccc(N2CCCCC2)c([N+](=O)[O-])c1 ?
KCNQ2 enhance: 1.8; KCNQ2 enhance baseline: 0.62

Results for Cc1ccc(S(=O)(=O)Nc2cc(=O)[nH]c(SCC(=O)Nc3cccc(C(F)(F)F)c3)n2)cc1 ?
KCNQ2 enhance: 0.03; KCNQ2 enhance baseline: 0.17

What do the screens show for `COc1ccc2c(CC(=O)Nc3ccc(OC)c(NS(=O)(=O)c4ccc(F)cc4)c3)coc2c1`?
KCNQ2 enhance: 0.22; KCNQ2 enhance baseline: 0.66
